From PubChem
VACV mCherry inh: vaccinia inhibition (mCherry reporter) | 310,000 tested, 0.63% active | AID 720579 | Vaccinia virus mCherry reporter infection, fluorescence; about a quarter of the inactives have no number | Potency, µM (highest dose often 36.5 µM), for inactives: at the highest dose activity change, negative = inhibition, most hits filed as inhibitors; active = well fitted inhibition curve with a large enough effect; inconclusive = small, poorly fitted or top-dose-only effect; inactive = no such curve, though single readings can be large or run the other way; tested in A549 cells; also: nearly all actives have a fitted effect of over 35% in size; inactives centre near -10
VACV Venus inh: inhibitors of vaccinia virus (Venus reporter); Vaccinia virus Venus reporter expression, fluorescence; 330,000 tested, 0.46% active; AID 720580; Potency, µM (doses to about 36.5 µM), inactives show at the highest dose activity change, negative = inhibition, usual class: inhibitors; active means well fitted inhibition curve with a large enough effect; inconclusive means small, poorly fitted or top-dose-only effect; inactive means no such curve, though single readings can be large or run the other way; tested in A549 cells; also: nearly all actives have a fitted effect of over 30% in size; inactives centre near -10
* hit, by the source's call; i = inactive; u = inconclusive; x = not tested or not shown; & = joins results of further samples; [ ] = remark or other dose. % is scaled to controls: 0 for no effect and ±100 for the full control effect; potency is read from the fitted curve at half-maximal effect.

The opening four compounds, to show the layout:
SMILES	VACV mCherry inh	VACV Venus inh
CCN(CC)Cc1c(O)ccc2cc(-c3nc4ccccc4n3C)c(=O)oc12	-7%	2%
CC(C)(C)c1ccc(C(=O)Nc2nnc(C3=COCCO3)o2)cc1	-19%	-17%
Cn1c(-c2ccccc2)n[nH]c1=S	-13%	-1%
CC1CCN(CCCCOc2ccc(Cl)cc2)CC1	0%	-22%

The listing, from the start:
SMILES	VACV mCherry inh	VACV Venus inh
CCN(CC)Cc1c(O)ccc2cc(-c3nc4ccccc4n3C)c(=O)oc12	-7%	2%
CC(C)(C)c1ccc(C(=O)Nc2nnc(C3=COCCO3)o2)cc1	-19%	-17%
Cn1c(-c2ccccc2)n[nH]c1=S	-13%	-1%
CC1CCN(CCCCOc2ccc(Cl)cc2)CC1	0%	-22%
O=C(NCc1ccc2c(c1)OCO2)C1CCCCC1	-9%	4%
Cc1ccc2c(c1)COc1c3ccc(C(=O)NCCO)cc3nn1-2	-6%	-9%
CCC(CCC(=O)Nc1ccc(S(N)(=O)=O)cc1)C(=O)O (stereo not drawn)	i	-12%
COc1ccc(OC)c(S(=O)(=O)N2CCCC(C(=O)NCc3ccncc3)C2)c1 (stereo not drawn)	-2%	-3%
Cc1ccc(S(=O)(=O)N2CCN(C(=O)COC(=O)c3cnc(C)cn3)CC2)c(C)c1	-8%	-2%
COc1ccc(OC(=O)N(C)C[C@@H]2OCc3cnnn3CCCC(=O)N([C@@H](C)CO)C[C@H]2C)cc1	i	-1%
O=C(c1ccco1)N1CCN(C(=O)C2CC(c3ccc(F)cc3)=NO2)CC1 (stereo not drawn)	-4%	-3%
O=C(Cn1c(NCCO)nc2ccccc21)N1CCN(Cc2ccccc2)CC1	-4%	-11%
Cc1cccc(C(=O)Nc2nnc(-c3ccco3)o2)c1	u	-9%
CC(C(=O)Nc1nncs1)N1C(=O)C2C3C=CC(C3)C2C1=O (stereo not drawn)	i	-7%
CC(C)NC(=O)COc1ncnc2sccc12	-10%	-5%
COc1cccc(CNCc2cccnc2)c1OCc1ccccc1	-8%	-7%
CCc1ccnc(NC(=O)Nc2ccc(OCc3ccccc3)cc2)c1	-3%	-1%
O=C(Nc1ccc2c(c1)OCO2)N1CCN(c2ccc(F)cc2)CC1	-21%	-16%
CCCCCSc1nc2c(c(=O)[nH]c(=O)n2C)n1C	-30%	-16%
CC(C)Oc1ccc(CC2CC(=O)NC2=O)cc1 (stereo not drawn)	-9%	-1%
CS(=O)(=O)c1ccc(Cl)c(NC(=O)COC(=O)CCCN2C(=O)c3cccc4cccc(c34)C2=O)c1	i	-3%
COc1ccc(Cl)cc1C(=O)CSc1nnnn1C1CCCC1	-9%	1%
O=C(Nc1cccnc1)c1ccc(-c2ccc(Cl)cc2)o1	-15%	-3%
C1=Cc2ccccc2/C1=C/c1ccc(/C=C2\C=Cc3ccccc32)cc1	-10%	-7%
Cc1ccc(-c2nn(-c3ccc(F)cc3F)c3c2cnc2c(F)cccc23)cc1	-3%	-11%
CN1C[C@@H]2[C@@H]3C(=O)N(C)C(=O)[C@@H]3[C@](C)(C1=O)N2C(=O)c1ccc(Cl)cc1	i	-4%
Cc1cnc(C(=O)OCc2ccc(Br)cc2F)cn1	19%	0%
O=S(=O)(Nc1ncnc2sc3c(c12)CCC3)c1ccc2ccccc2c1	x	-29%
Cc1cc(C)cc(NC2=C(c3ccccc3)C(=O)c3ccccc32)c1	-11%	-10%
O=C(N/N=C/c1ccc([N+](=O)[O-])s1)c1ccncc1	u	11µM*
COc1cc(C(C)=O)ccc1OCC(=O)N1CCCC1c1ccc2c(c1)OCCCO2 (stereo not drawn)	i	-13%
C[C@H](O)[C@@H]1C(=O)N2CCc3ccc(-c4ccccc4)cc3[C@@H]2C[C@@H]1N(C)C(=O)c1ccco1	-15%	-20%
O=C(NCc1ccco1)c1ccc2c(c1)CCO2	0%[7.34 µM]	1%[7.34 µM]
O=C(CNC(=O)C1COc2ccccc2O1)Nc1cc(Cl)ccc1Cl (stereo not drawn)	-2%	-17%
Cc1oc2ncn(C)c(=O)c2c1C(=O)Nc1ccc(F)cc1	-2%	11%
CSc1nc(=O)c2c(n1C)NC(=O)CC2c1ccccc1OC(C)C (stereo not drawn)	-7%	-11%
CC(C)N(CCn1c(SCC(=O)N2CC(=O)Nc3ccccc32)nc2ccccc2c1=O)C(C)C	-19%	-24%
CCC1C(=O)N(c2nc(C)cc(C)n2)N=C1C (stereo not drawn)	-14%	-1%
Cc1ccccc1-c1cc2nc(Oc3cccc4ccccc34)n(C)c(=O)c2s1	20%	5%
COc1ccc(CCNC(=O)C2=C(C)C(=O)OC23CCCCC3)c(OC)c1OC	0%	-6%
O=C(Cc1ccccc1)NCCc1c[nH]c2ccccc12	-21%	-17%
C/C(=N\N=C1\NC(=O)C(CC(=O)Nc2ccccc2F)S1)C1CCCCC1 (stereo not drawn)	-7%	-18%
Cc1cc(/C=N/n2cnnc2)c(O)c([N+](=O)[O-])c1	-18%	-17%
OC(CNC1Cc2ccccc2C1)c1ccccc1 (stereo not drawn)	-2%	-4%
COc1ccc(C2CC(c3ccc(Br)cc3)=NN2C(=O)CSC2=NCCS2)cc1 (stereo not drawn)	-22%	-28%
CCOC(=O)c1cnc2c(OC)cccc2c1N1CCN(c2ccccn2)CC1	-17%	-21%
CCOc1ccccc1OCC(=O)Nc1ccc(N2CCCCC2)cc1	u	-14%
CCN(CC)CCn1c(/N=C/c2cc(Br)ccc2O)nc2ccccc21	i	-16%

Given with two lines to a compound: 24 of the compounds above
Fields: VACV mCherry inh | VACV Venus inh
COc1ccc(Cl)cc1C(=O)CSc1nnnn1C1CCCC1
→ -9% | 1%
O=C(Nc1cccnc1)c1ccc(-c2ccc(Cl)cc2)o1
→ -15% | -3%
C1=Cc2ccccc2/C1=C/c1ccc(/C=C2\C=Cc3ccccc32)cc1
→ -10% | -7%
Cc1ccc(-c2nn(-c3ccc(F)cc3F)c3c2cnc2c(F)cccc23)cc1
→ -3% | -11%
CN1C[C@@H]2[C@@H]3C(=O)N(C)C(=O)[C@@H]3[C@](C)(C1=O)N2C(=O)c1ccc(Cl)cc1
→ i | -4%
Cc1cnc(C(=O)OCc2ccc(Br)cc2F)cn1
→ 19% | 0%
O=S(=O)(Nc1ncnc2sc3c(c12)CCC3)c1ccc2ccccc2c1
→ x | -29%
Cc1cc(C)cc(NC2=C(c3ccccc3)C(=O)c3ccccc32)c1
→ -11% | -10%
O=C(N/N=C/c1ccc([N+](=O)[O-])s1)c1ccncc1
→ u | 11µM*
COc1cc(C(C)=O)ccc1OCC(=O)N1CCCC1c1ccc2c(c1)OCCCO2 (stereo not drawn)
→ i | -13%
C[C@H](O)[C@@H]1C(=O)N2CCc3ccc(-c4ccccc4)cc3[C@@H]2C[C@@H]1N(C)C(=O)c1ccco1
→ -15% | -20%
O=C(NCc1ccco1)c1ccc2c(c1)CCO2
→ 0%[7.34 µM] | 1%[7.34 µM]
O=C(CNC(=O)C1COc2ccccc2O1)Nc1cc(Cl)ccc1Cl (stereo not drawn)
→ -2% | -17%
Cc1oc2ncn(C)c(=O)c2c1C(=O)Nc1ccc(F)cc1
→ -2% | 11%
CSc1nc(=O)c2c(n1C)NC(=O)CC2c1ccccc1OC(C)C (stereo not drawn)
→ -7% | -11%
CC(C)N(CCn1c(SCC(=O)N2CC(=O)Nc3ccccc32)nc2ccccc2c1=O)C(C)C
→ -19% | -24%
CCC1C(=O)N(c2nc(C)cc(C)n2)N=C1C (stereo not drawn)
→ -14% | -1%
Cc1ccccc1-c1cc2nc(Oc3cccc4ccccc34)n(C)c(=O)c2s1
→ 20% | 5%
COc1ccc(CCNC(=O)C2=C(C)C(=O)OC23CCCCC3)c(OC)c1OC
→ 0% | -6%
O=C(Cc1ccccc1)NCCc1c[nH]c2ccccc12
→ -21% | -17%
C/C(=N\N=C1\NC(=O)C(CC(=O)Nc2ccccc2F)S1)C1CCCCC1 (stereo not drawn)
→ -7% | -18%
Cc1cc(/C=N/n2cnnc2)c(O)c([N+](=O)[O-])c1
→ -18% | -17%
OC(CNC1Cc2ccccc2C1)c1ccccc1 (stereo not drawn)
→ -2% | -4%
COc1ccc(C2CC(c3ccc(Br)cc3)=NN2C(=O)CSC2=NCCS2)cc1 (stereo not drawn)
→ -22% | -28%

Next compounds.
SMILES	VACV mCherry inh	VACV Venus inh
COc1ccc(OC)c(NC(=O)CSc2nnc(NC(=O)c3ccco3)s2)c1	-9%	-21%
CCOc1ccc(S(=O)(=O)/N=C(\N)c2ccccc2)cc1	u	-7%
CN(Cc1ccco1)C(=O)CC[C@H]1O[C@@H](n2ccc(=O)[nH]c2=O)[C@H](O)[C@@H]1O	10%	-5%
CN1C(=O)Cc2cc(S(=O)(=O)CCC(=O)Nc3cccc(C(F)(F)F)c3)ccc21	-10%	1%
CC(=O)c1ccc(NS(=O)(=O)c2cccc(S(=O)(=O)c3ccc(Cl)cc3)c2)cc1	-10%	-21%
Cc1nn(S(=O)(=O)c2cccc([N+](=O)[O-])c2)c(C)c1Br	8%	6%
O=C(Nc1ccncc1)c1ccc2ccccc2c1	-29%	-1%
Cc1nc2ccccn2c1C(=O)C(=O)Nc1cc(F)ccc1F	-2%	-1%
CCOC(=O)c1c(C)[nH]c(C(=O)COC(=O)/C=C/c2ccc(O)c(OC)c2)c1C	-18%	-4%
CCCCCCN1C[C@H](O)[C@@H](n2cc(C3CC3)nn2)C[C@@H]1c1ccccc1	-17%	-13%
O=C(COc1ccccc1Cl)N1CCN(CCc2ccncc2)CC1	-20%	-9%
FC(F)(F)C1CCCN(c2nsc3ccccc23)C1 (stereo not drawn)	-15%	-4%
Cc1ccsc1C(=O)OCc1csc(-c2ccccc2)n1	x	-10%
COc1cc(NC(=S)N2CCN(CCO)CC2)c(OC)cc1Cl	-5%	-13%
CS(=O)(=O)N(CC(=O)N1CCCCC1)Cc1ccc(Cl)cc1	-12%	-5%
CS(=O)(=O)N(CC(=O)NC1CCCC1)C1CCCCC1	3%	-2%
Cc1ccc(/C=N/NC(=O)c2ccc(C(=O)N/N=C/c3ccc(C)s3)o2)s1	-7%	-3%
CC(=O)Oc1ccc(C(=O)Nc2nccs2)cc1	i	-13%
O=C(NCC1CCCO1)c1nn2cccnc2c1Cl (stereo not drawn)	x	1%
COc1ccc(OC)c(Nc2nc(-c3sc(N)nc3C)cs2)c1	u	-27%
CCc1ccc(NC(=O)CC2C(=O)N(c3ccc(OC)cc3)C(=O)N2Cc2ccc(OC)cc2)cc1 (stereo not drawn)	i	-16%
CCCOc1ccc(Cc2nn[nH]n2)cc1	-9%	-5%
CCOC(=O)c1ccc(NC(=O)CCc2c(C)nc3c(c(C)nn3C(C)(C)C)c2C)cc1	-18%	-20%
CC(C)c1nc(SCC(=O)Nc2cccc(S(N)(=O)=O)c2)n[nH]1	-12%	2%
CCN(Cc1ccccc1)C(=O)c1cc2cc(OC)c(OC)cc2[nH]1	-12%	-8%
O=C(NC1=NCCS1)c1ccc(Cl)c(S(=O)(=O)N2CCCC2)c1	-6%	-8%
C=C(C)CSc1nc2sc3c(c2c(=O)n1CCCC)CCCC3	-1%	4%
COc1ccc(CN2C(=O)c3cccnc3C2=O)cc1S(=O)(=O)N1CC(C)Oc2ccccc21 (stereo not drawn)	i[7.34 µM]	-17%[7.34 µM]
CC(C)(C)c1ccc(-c2csc(NC(=O)CN3C(=O)NC4(CCCCC4)C3=O)n2)cc1	x	-12%
Cc1cc(Cl)ccc1C(O)c1ncc(-c2ccc3ccccc3c2)[nH]1 (stereo not drawn)	-16%	-7%
COc1ccc(-n2nc(C(=O)NCC(=O)N3CCCC(C)C3)c3ccccc3c2=O)cc1Cl (stereo not drawn)	-19%	-10%
CCN(CC)c1nc(C#N)nc(OC)n1	-12%	-7%
CC1(C(=O)Nc2ccc3c(c2)OCCO3)CCN1Cc1csc2ccccc12 (stereo not drawn)	2%	-2%
COc1cc(OC)cc(-n2nnnc2SCC(=O)NC2CCCC2)c1	-6%[1.46 µM]	-13%
C(=N\N1CCN(C2c3ccccc3-c3ccccc32)CC1)/c1ccccn1	-8%	-8%
Cc1ccc(OCC(=O)Nc2ccc3c(c2)OCCO3)cc1C	u	-13%
COCCn1cnnc1SCC(=O)Nc1sc2c(c1C#N)CCC2	i	-2%
NCCCCCNC(=O)/C=N\O	-4%	u
N[C@@H](CSS(=O)(=O)O)C(=O)O	-22%&-29%	-20%&-19%
Cc1cc(C)c(NC(=O)CN2C(=O)c3cccnc3Sc3ccccc32)c(C)c1	-7%	-15%

Outcome played no part in choosing rows, and some 0.86% of all compounds hit somewhere here.
